# Compound activity deposited in PubChem by several laboratories.
# Arbovirus inh: antivirals against arbovirus infection. arbovirus infection cell-based antiviral screen. inhibition, % at 10 µM. 200,000 compounds, 0.37% hits. AID 1251;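 active means inhibition from about 30%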;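 further: bluetongue infection of BSR cells; cell survival read as ATP light after 72 h; 0% = infected wells without compound and 100% = uninfected wells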
# YopH inh: YopH (Yersinia) phosphatase inhibition; inhibition, %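 (about 10 µM by stock and volumes)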; 140,000 compounds, 0.16% hits; fluorescence Ex485/Em525;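 active means inhibition of 50% or more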;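 further: controls were vehicle for no effect and minimum signal wells for full effect; inactives centre near -20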
# RecA intein inh: inhibitors of M. tuberculosis RecA intein splicing; P9WHJ3; cell-free RecA intein splicing, fluorescence; inhibition, %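 (about 9 µM by stock and volumes)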; 290,000 compounds, 0.75% hits; in the data active means inhibition above about 30%; inconclusive means no clear call, values can overlap the other calls;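 further: 0% = vehicle wells and 100% = reference inhibitor control wells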
# Target sequence (P9WHJ3 whole entry, looked up): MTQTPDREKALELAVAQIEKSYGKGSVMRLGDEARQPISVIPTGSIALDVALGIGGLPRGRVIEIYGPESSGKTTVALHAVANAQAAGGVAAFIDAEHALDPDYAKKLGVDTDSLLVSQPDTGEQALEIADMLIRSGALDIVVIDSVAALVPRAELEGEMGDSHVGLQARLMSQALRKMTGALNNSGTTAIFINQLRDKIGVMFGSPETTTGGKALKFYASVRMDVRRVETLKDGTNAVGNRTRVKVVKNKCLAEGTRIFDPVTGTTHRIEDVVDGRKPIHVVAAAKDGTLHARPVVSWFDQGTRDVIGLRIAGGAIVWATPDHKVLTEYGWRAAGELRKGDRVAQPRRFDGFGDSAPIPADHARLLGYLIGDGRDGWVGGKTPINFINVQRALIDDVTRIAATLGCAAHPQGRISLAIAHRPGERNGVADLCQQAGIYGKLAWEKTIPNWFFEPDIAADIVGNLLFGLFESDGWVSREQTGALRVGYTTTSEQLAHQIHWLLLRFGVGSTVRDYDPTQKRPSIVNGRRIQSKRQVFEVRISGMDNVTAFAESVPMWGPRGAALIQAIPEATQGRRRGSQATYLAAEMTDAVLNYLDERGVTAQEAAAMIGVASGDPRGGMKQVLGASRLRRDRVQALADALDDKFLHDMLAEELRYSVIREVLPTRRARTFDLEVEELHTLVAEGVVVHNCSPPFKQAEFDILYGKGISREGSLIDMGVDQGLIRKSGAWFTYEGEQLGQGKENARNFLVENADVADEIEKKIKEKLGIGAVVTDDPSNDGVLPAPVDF
# Mtb bLac sens: beta-lactam sensitization of Mtb H37Rv | inhibition, % at 25 µM | 330,000 compounds, 0.27% hits | AID 434955 | M. tuberculosis H37Rv growth with meropenem, percent inhibition; hits of this screen are not shown here;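 active means about 74% or more and at least 40 points above the plate without the antibiotic, then above 30% in a dose series; inconclusive means first-round hits that could not be retested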;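 further: growth measured after seven days incubation then overnight dye step; 0% = bacteria only wells and 100% = bacteria with antibiotic; twin plates without the antibiotic show which effects depend on it; some results filed as inactive read as strong as hits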
# Mtb growth: M. tuberculosis H37Rv growth inhibitors, H37Rv strain (AID 1626). inhibition, % at 10 µM, or IC50 in µM where a hit was titrated. 220,000 compounds, 0.95% hits. M. tuberculosis H37Rv growth inhibition; higher % means a stronger effect;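 active means confirmed in a dose series; inconclusive means inhibition above 80% but not taken into the dose series; inactive means below 80% or under 30% at every dose of the series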;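 further: bacteria incubated seven days before Alamar blue readout; 0% = bacteria only wells and 100% = bacteria with antibiotic wells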
# Arbovirus inh repeat: further read-out of Arbovirus inh, marked with its call; inhibition, %; measured here: 10K subset replicate screen; many hits read low in the repeat;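 first of two repeat runs on a subset; 0% = infected and 100% = uninfected wells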
# * hit, by the source's call; ? = inconclusive; nt = no result given.
SMILES,Arbovirus inh,YopH inh,RecA intein inh,Mtb bLac sens,Mtb growth,others
COc1ccc(C(=O)NC2CCSc3ccccc32)cc1S(=O)(=O)N1CCOCC1 (configuration not stated),nt,nt,-0.3,-6,nt,
COc1c(F)c(F)c(C(=O)Nc2ccc(NC(=O)c3ccco3)cc2)c(F)c1F,-18,-14,0.4,22,-5%,
CC1(C)CC(NC(=O)c2cc(Cl)ccc2Cl)CC(C)(C)N1,nt,nt,2.4,0,nt,
CCOc1ccc(NC(=S)N2CCCN(Cc3cc(C)ccc3C)C2)cc1,-14,nt,-0.2,19,-2%,
CCn1cc(C(=O)O)c(=O)c2cc(Br)ccc21,2,-31,nt,6,-2%,
COc1ccc(CCNc2nc(C)nc3c2oc2ccccc23)cc1OC,9,0,-3.4,-3,2%,
CCC(C)(C)NC(=O)CN(C(=O)CCC(=O)Nc1nccs1)c1ccccc1C,nt,nt,-2.5,-2,nt,
CCCn1cc(CN2CCCC(CNC(=O)c3ccc(F)cc3)C2)c(C)n1 (configuration not stated),-3,nt,0.0,3,-3%,
CCn1c(O)c(C2=c3ccccc3=NC2=O)c2cc(Br)ccc21,-15,nt,-3.7,80,?,
CCc1ccc(NC(=O)[C@H](NC(=O)[C@@H]2Cc3ccccc3CN2)c2ccccc2)cc1,nt,nt,10,9,nt,
O=C(O)C1(NS(=O)(=O)c2ccc(Cl)cc2)CCCCC1,3,-10,-0.7,4,-9%,
COc1cc(Cl)ccc1OCc1cc(C(=O)N(C)C2CC(C)(C)NC(C)(C)C2)no1,nt,nt,0.3,-2,nt,
Clc1ccccc1CO/N=C1\CCCc2nonc21,-2,-22,-1.3,2,1%,
CCc1c(C)nc(Nc2nc(C)c3ccc(OC)cc3n2)[nH]c1=O,-15,-11,-1.3,3,15%,
O=C(/C=C/c1ccccc1)NC(=S)Nc1ccc(CN2CCOCC2)cc1,13,-22,0.4,-5,-13%,
CC(=O)N1CCN(CC(=O)Nc2cc(F)ccc2C)CC1,nt,nt,1.6,-14,nt,
Cc1nn(CC(=O)NCCN2CCCCC2C)c(=O)c2cc(-c3ccccc3)nn12 (configuration not stated),nt,nt,-2.8,-5,nt,
CCOc1cc(C(=O)Nc2ccc(NC(C)=O)cc2)ccc1OCC(=O)N1CCCCC1,10,16,-2.3,2,10%,
CN(C)N1C(N)=C(C#N)C(c2ccc(Cl)cc2)C2=C1CCCC2=O (configuration not stated),nt,nt,-3.3,2,nt,
CC(=C1C(=O)c2ccccc2C1=O)N1CCN(CCN=CC2=C(O)CC(C)(C)CC2=O)CC1,8,-1,1.3,8,-3%,
c1csc(-c2nn3cnnc3c3ccccc23)c1,-6,nt,0.1,-13,0%,
CC(C)CNC(=O)C(=O)NCCCN1CCOCC1,-2,nt,-1.2,-5,-1%,
Cc1ccccc1-c1nn(-c2ccc(F)cc2F)cc1CNCCN(C)C,-10,nt,3.5,-5,7%,
Cc1[nH]nc2c1C(c1ccc(OC(=O)c3ccco3)cc1)C(C#N)=C(N)O2 (configuration not stated),11,-10,74*,100,59%,
CN1C=C(C(F)(F)F)C=C/C1=C(\C#N)c1nnc2n1CCCCC2,6,-38,-0.5,11,-4%,
# Next section:
SMILES,Arbovirus inh,YopH inh,RecA intein inh,Mtb bLac sens,Mtb growth,others
CCCCn1c(SC(C)C(=O)NCC2CCCO2)nc2cc(C(=O)OC)ccc2c1=O (configuration not stated),nt,nt,1.6,40,nt,
O=C(CCCc1nc(-c2ccccc2)no1)NC1CCCC1,nt,nt,1.3,-1,nt,
Cc1ccc(NS(=O)(=O)c2cccc(C(=O)NCC3CCCO3)c2)cc1 (configuration not stated),nt,nt,-1.4,1,nt,
CSc1n[nH]c2nc3c(c(=O)n12)C1(CCCCC1)Cc1ccccc1-3,nt,nt,-18,-3,4%,
COc1ccc(NC(=O)c2ccco2)c2ccccc12,nt,nt,-0.3,5,nt,
Cc1ccc(C2=NN(CC(=O)NCc3ccccn3)C(=O)CC2)cc1,-5,-26,-1.5,0,6%,
Cc1cc(C)c(Cn2cnc(-c3ccc([N+](=O)[O-])cc3)c2)c(C)c1,-3,3,-4.9,4,3%,
CCOc1ccc(NCc2nc3ccccc3n2CCOc2ccccc2)cc1,-4,9,12,39,?,
CC(C)(C)C1=Nn2c(nnc2-c2ccccn2)SC1,-6,5,-2.9,13,8%,
Cc1ccc(C(=O)O)cc1NC(=O)CN1C(=O)C2C3c4ccccc4C(Br)(c4ccccc43)C2C1=O (configuration not stated),4,-31,1.2,5,-5%,
COc1cccc(CC(=O)OCC(=O)NC(Cc2ccccc2)C(C)=O)c1 (configuration not stated),nt,nt,-0.9,-14,nt,
O=c1nc(-c2ccccc2)c2cc(Cl)ccc2[nH]1,-2,-39,-1.2,1,-4%,
CCCCc1cc(=O)oc2cc(OCC(=O)N3CCc4ccccc43)ccc12,-27,-16,7.7,-1,-1%,
CC(NC(=O)c1ccco1)C(c1cccs1)N1CCN(c2ccc(F)cc2)CC1 (configuration not stated),11,-33,2.4,-4,3%,
O=C(C1CCCO1)N1CCN(S(=O)(=O)c2ccccc2)CC1 (configuration not stated),-3,-20,-0.1,-7,-1%,
C=CCN(CC=C)C(=O)COC(=O)c1n[nH]c2ccccc12,5,nt,0.5,-2,4%,
COc1ccc(-c2nc(SCc3ccccc3)n(S(C)(=O)=O)n2)cc1,2,-33,6.4,1,2%,
O=C(Nc1cc(Cl)ccc1-n1cncn1)C1CC1,nt,nt,-2.4,-4,nt,
CCn1c(N2CCN(S(=O)(=O)c3ccccc3)CC2)nc2ccccc21,nt,nt,5.6,3,nt,
Cc1cc(C)c2c(c1)/C(=N/NC(=O)c1cc(C)oc1C)CCC2,8,-15,-2.6,6,11%,
COc1cc(OC)cc(C(=O)NC(=S)NNC(=O)Cc2cccs2)c1,-36,-16,0.0,0,15%,
O=C(O)CNC(=O)c1ccc(S(=O)(=O)N2CCOCC2)cc1,2,-24,0.8,-15,-6%,
COc1ccc(/C=C2\SC(=S)N(CCC(=O)Nc3ccccn3)C2=O)cc1OC,nt,nt,-1.7,5,nt,
CSc1cccc(NC(=O)CN(C2CCCCC2)S(C)(=O)=O)c1,9,-19,-0.2,3,-6%,
Cc1ccccc1C1C(C#N)=C2N=C(N)c3c(sc4c3CCCCC4)N2C2=C1C(=O)CC(C)(C)C2 (configuration not stated),-7,-23,0.4,88,-10%,

# Of the compounds above, four contain a thiophene ring, fused or not.
SMILES,Arbovirus inh,YopH inh,RecA intein inh,Mtb bLac sens,Mtb growth,others
c1csc(-c2nn3cnnc3c3ccccc23)c1,-6,nt,0.1,-13,0%,
CC(NC(=O)c1ccco1)C(c1cccs1)N1CCN(c2ccc(F)cc2)CC1 (configuration not stated),11,-33,2.4,-4,3%,
COc1cc(OC)cc(C(=O)NC(=S)NNC(=O)Cc2cccs2)c1,-36,-16,0.0,0,15%,
Cc1ccccc1C1C(C#N)=C2N=C(N)c3c(sc4c3CCCCC4)N2C2=C1C(=O)CC(C)(C)C2 (configuration not stated),-7,-23,0.4,88,-10%,

# The list goes on:
SMILES,Arbovirus inh,YopH inh,RecA intein inh,Mtb bLac sens,Mtb growth,others
Cc1ccc(S(=O)(=O)N2CCOCC2)cc1NC(=O)c1cc([N+](=O)[O-])ccc1N1CCOCC1,nt,nt,-1.3,9,nt,
CCCc1n[nH]c(=O)c2c1nnn2Cc1ccccc1F,nt,nt,-1.7,-2,nt,
CCN=C(Nc1ccc2c(c1)OCO2)SC1CC(=O)N(c2ccccc2F)C1=O (configuration not stated),-7,-19,-0.9,-2,17%,Arbovirus inh repeat=-2
O=C(CCCN1C(=O)c2cccnc2Oc2ccc(Cl)cc21)N1CCCCC1,nt,nt,-1.5,?,nt,
Cc1cccc(Nc2cc(C)c3c(O)cccc3n2)c1C,-35,-30,24,56,nt,
CCN(CC(=O)Nc1cc(Cl)ccc1C)C(=O)CCOc1ccc(C)cc1,nt,nt,-0.7,31,nt,
COc1ccc(NC(=O)NCCCCc2ccccc2)cc1OC,nt,nt,2.5,1,nt,
Cc1nn(Cc2ccccc2)c(C)c1C(=O)OCC(=O)c1cc(C)n(CC(F)(F)F)c1C,-28,-18,-1.8,98,-5%,
Cc1cc(NC(=O)CCl)no1,12,nt,2.9,96,65%,
Cc1cccc(NC(=O)CCCN2C(=O)C3CC=CCC3C2=O)c1 (configuration not stated),nt,nt,1.8,5,nt,
CC1CCN(c2ccc(N3C(=O)C4CCCCC4C3=O)cc2[N+](=O)[O-])CC1 (configuration not stated),-1,-18,-1.4,-9,-2%,
Cc1nc2ccc(Nc3ccncc3)cc2s1,-2,nt,-1.4,-2,-3%,
COP(=S)(OC)c1c(C)nn(CCC#N)c1NC(=O)c1ccc(Cl)cc1,nt,nt,5.4,3,nt,
CCc1cc(C(=O)Nc2ncccc2O)sc1C,nt,nt,-0.4,44,nt,
Cc1cc(C(=O)COC(=O)CNC(=O)c2ccc(F)cc2)c(C)n1Cc1ccco1,2,-31,3.2,3,-1%,
CC(=O)N(c1ccc(N(C(C)=O)S(=O)(=O)c2ccccc2)cc1)S(=O)(=O)c1ccccc1,nt,nt,0.4,1,nt,
O=c1[nH]n(-c2ccc(F)cc2)c2ncccc12,0,-36,-2.1,3,-3%,
COc1ccc(C)cc1S(=O)(=O)Nc1cccc(Cl)c1Cl,-10,0,nt,-12,-5%,
Cc1cc(C(=O)NCc2ccc(Cl)cc2)n(-c2ccccc2)n1,nt,nt,3.7,37,-2%,
CCCCNc1cc(F)nc(N)n1,0,nt,-0.6,8,3%,
Cc1ccc(C(=O)C2=C(O)C(=O)N(c3ncccn3)C2c2ccc(Cl)cc2)o1 (configuration not stated),1,-21,-1.1,-5,1%,
COc1ccc(C(=O)O)cc1F,4,-45,-2.8,4,-9%,
COc1ccc(-c2cc(=O)oc3cc(OC(C)C(=O)NCCCn4ccnc4)ccc23)cc1 (configuration not stated),nt,nt,1.1,-2,nt,
CC(C(=O)Nc1ccc(C#N)cc1)N(C)CC(=O)Nc1cccc(F)c1 (configuration not stated),0,nt,-0.6,2,5%,
C[C@H]1CN=C(Nc2ccccc2)N1CC1CCCCCC1,nt,nt,-1.2,1,nt,
# Going on with the list.
SMILES,Arbovirus inh,YopH inh,RecA intein inh,Mtb bLac sens,Mtb growth,others
CCN(CC)c1ccc(NC(=O)OC)cc1,-4,-13,5.7,65,nt,
CC1CCN(S(=O)(=O)c2ccc3[nH]c(=O)[nH]c3c2)CC1,nt,nt,0.2,-8,nt,
OCc1nc2ccccc2n1Cc1ccc(Cl)cc1,nt,nt,-0.1,2,nt,
O=C(C1CCCN(S(=O)(=O)c2ccc(F)cc2)C1)N1CCCCC1 (configuration not stated),nt,nt,-1.6,-2,nt,
Cc1ccc(C(=O)NCC(=O)NCC(c2cccs2)N2CCOCC2)cc1C (configuration not stated),nt,nt,-2.3,-4,nt,
COc1ccccc1C1N=C(c2ccccc2C)NO1 (configuration not stated),nt,nt,0.4,-4,nt,
O=C(c1ccccc1)c1ccc2nc(Nc3ccccc3)c3nncn3c2c1,nt,nt,4.0,-6,-3%,
Cc1ccc2nc(-c3ccncc3)cc(C(=O)NCCc3ccc(F)cc3)c2c1,-1,nt,-1.1,-8,2%,
CCOc1c2ccc(C(=O)NCCc3ccc(C)cc3)cc2nn1CC,-8,-25,-0.4,5,11%,
Cc1cccc[n+]1CC(=O)Nc1cccc([N+](=O)[O-])c1,10,nt,0.0,7,-1%,
Cc1nnc(NCCc2ccccc2)[nH]c1=O,14,-9,1.6,-19,3%,
CCOc1ccc(C2=C(C=Nc3c(C)n(C)n(-c4ccccc4)c3=O)C(c3ccc(F)cc3)c3ccccc3O2)cc1 (configuration not stated),27,8,nt,-4,0%,
CC1(OC(=O)C2CCCC2)C(=O)C=C2C=C(c3ccsc3)N(CCN3CCOCC3)C=C2C1=O (configuration not stated),nt,nt,20,nt,-14%,
S=C(Nc1ccc(Nc2ccccc2)cc1)N1CCN(c2ncccn2)CC1,-9,nt,-0.4,-1,5%,
COC(=O)c1ccc(CN2C(=O)NC3(CCC(C)CC3)C2=O)o1 (configuration not stated),2,-36,4.1,8,1%,
Cc1ccc(N)c(C(=O)c2ccccc2)c1,-2,-9,-3.0,2,-5%,
COc1ccc(NC(C)=O)cc1NC(=O)CSc1nnc(-c2cccnc2)n1C,1,-10,-1.7,-3,-6%,Arbovirus inh repeat=2
O=S(=O)(c1cccc2cccnc12)N1CCN(c2ccccn2)CC1,-2,nt,-1.9,2,4%,
O=C(Nc1c(C(=O)N2CCC(N3CCCCC3)CC2)oc2ccccc12)c1ccc(F)cc1,nt,nt,-2.1,2,nt,
COc1ccccc1CC1(C)NC(=O)N(CC(=O)Nc2cc(C)on2)C1=O (configuration not stated),-1,13,1.1,-21,-3%,
COc1ccc(CN2CCNC(=O)C2CC(=O)NCC(C)(C)N2CCOCC2)cc1C (configuration not stated),nt,nt,-1.5,-9,nt,
COc1ccc(CNC(=O)COC(=O)c2ccco2)cc1,7,nt,-2.5,0,-1%,

# Some of the compounds tested. The share of hits here may be higher or lower than overall.
